High-throughput results from PubChem.
BJeLR lethal – MLPCN primary cell-based screen for lethality selective to Ras in HRASV12 cells. BJeLR (HRASV12) viability, CellTiter-Glo ATP luminescence, 48 h; reference of the scale not given here. inhibition, % (concentration not given with the values). 300,000 tested, 0.17% active. AID 1554, 2009;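 active = replicate mean above 50%; inconclusive = above 50% but judged a plate artefact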;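 note: 50 nL library stock added to about 25 µL; numbers are from one replicate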
Sa RN4220 lethal – growth inhibition of S. aureus RN4220, primary screen, OD600; 16 h; inhibition, % (no concentration beside the values); 330,000 tested, 0.33% active;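 active = z-score of -3 or lower and OD600 up to 0.18 on both plates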;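 note: plate controls were untreated cells for no effect and reference antibiotic for full effect; stock transfer was 100 nL into about 80 µL; one replicate is shown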
Mtb hypoxia inh – PubChem AID 1159583. 300,000 tested, 0.1% active. fluorescence inhibition, % (no concentration beside the values). M. tuberculosis hypoxia-regulated fluorescent reporter, fluorescence;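 active = 35 to 45% if threefold the growth effect, above 45% if 1.5-fold the growth effect; inactive = the rest, general growth blockers included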;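 note: wells of about 50 µL received 100 nL stock; 0% = vehicle wells and 100% = reference inhibitor wells; whole bacteria with a GFP reporter of the hypoxia response; strong numbers were not always called active; many hits fall short of the cut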
Sa ugtP lethal – growth inhibition of ugtP-null S. aureus, primary screen, RN4220 ugtP deletion, OD600 | growth inhibition, % (no concentration beside the values) | 16 h; some inactives read as strong as hits | 330,000 tested, 0.54% active;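 active = z-score under -3 and OD600 up to 0.15 on both plates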;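 note: plate controls were untreated wells for no effect and antibiotic for full effect; wells of about 80 µL received 100 nL stock; the first replicate is given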
Autofluor counter – flagged as autofluorescent in microsphere protease counterscreen. compound autofluorescence counterscreen, microsphere flow cytometry; hits give high values. fluorescence intensity (concentration not given with the values). 360,000 tested, 3.1% active. AID 624483;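 active = at least 3 SD above the mean of all compounds, about 16000 in these data; inconclusive = too few beads counted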;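 note: 100 nL of 1 mM stock went into each well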
PrP 5UTR inh – inhibition of PrP 5' UTR reporter expression; cell-based PrP 5' UTR mRNA reporter, plate reader; inhibition, % (concentration not given with the values); 340,000 tested, 0.35% active;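 active = every replicate at 50% or more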;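 note: 0 = median of the neutral control wells; tested in H4 reporter cells; numbers are from one replicate; inactives centre near -14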
Mtb hypoxia inh growth – also measured in Mtb hypoxia inh; calls as there; growth inhibition, %; measured here: M. tuberculosis growth (absorbance);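 0% = vehicle and 100% = reference antibiotic; read after six days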
* marks the source's active call; other numbers are inactive results; ? = inconclusive; · = no result given.

Every second line gives: Mtb hypoxia inh	PrP 5UTR inh	Autofluor counter	Sa ugtP lethal	Sa RN4220 lethal	BJeLR lethal	Mtb hypoxia inh growth
N#Cc1c(N)n(-c2ccc(N)cc2)c2nc3ccccc3nc12
→ 12	-5	3634	9	-0.2	2	7
Cc1ccc(S(=O)(=O)NCCCNS(C)(=O)=O)cc1
→ 1	-13	8429	2	4.9	10	4
COc1ccccc1C1CC(=O)Oc2cc(C)c(Br)c(C)c21 (stereo unspecified)
→ 8	-11	3088	86*	-3.0	·	-2
CC(C)(C)NC(=S)Nc1ccc(Nc2ccccc2)cc1
→ -4	-17	9593	-13	-0.2	2	3
COc1ccc(C(=O)N/C(=C/c2ccc(Cl)cc2)C(=O)NCc2ccncc2)cc1
→ -12	-1	4073	0	-1.5	-7	1
CNC(=O)NC(=O)C(C)OC(=O)c1c(C)noc1C (stereo unspecified)
→ 2	-10	2505	-2	6.3	·	2
CCOc1ccccc1OC(C)C(=O)Nc1ccc(S(=O)(=O)N2CCCC2)cc1 (stereo unspecified)
→ 0	-20	5026	10	1.7	2	5
Cc1cccc(N2CCN(C(=O)c3ccc4[nH]c(C)c(C)c4c3)CC2)c1C
→ 10	3	2940	-23	-4.3	·	1
COc1ccc(CNC(=O)c2c(C)cc(=O)oc2C)cc1
→ 6	-23	3878	2	9.2	-12	2
Cc1nn(-c2ccccc2)c(Cl)c1C=NNc1nc2ccccc2n1C
→ 4	·	·	-22	-1.0	·	3
Cc1ccc(S(=O)(=O)N2CCC(=O)N(CCOCc3cccc(C)c3)CC2)cc1
→ 15	-12	3656	-16	2.2	7	5
CCOc1cc2c(cc1/C=C/C(=O)O)OC(C)C2 (stereo unspecified)
→ 3	-10	4226	0	1.7	4	10
CCC(=O)Nc1cccc(NC(=S)NC(=O)Cc2ccccc2)c1
→ ·	-2	2584	15	-0.9	0	·
Nc1nc(Nc2ccccc2)nc(N2CCCC2)c1[N+](=O)[O-]
→ -1	-42	3511	-27	2.2	0	-2
CS(=O)(=O)c1ccc(Cl)c(NC(=O)C2CCCCN2S(=O)(=O)c2ccccc2)c1 (stereo unspecified)
→ 3	-35	3917	9	-1.1	·	-4
Cc1ccccc1N1CCN(S(=O)(=O)c2cccs2)CC1
→ -5	-20	6126	20	10	8	-5
COc1ccc(-c2n[nH]c(=S)n2Cc2ccco2)cc1
→ 1	-5	21139*	2	8.7	-17	8
N/C(=N\OC(=O)c1ccccc1)C(C(=O)NOC(=O)c1ccccc1)C1CCCCC1 (stereo unspecified)
→ 11	-5	3640	3	-1.1	·	17
C(=Nn1cnnc1SCc1ccccc1)c1ccco1
→ 7	·	·	-2	2.3	·	10
CC(=O)n1cc([C@@H]2C=C(C(=O)O)O[C@H](OCc3ccc(CO)cc3)C2)c2ccccc21
→ ·	-12	3649	·	·	6	·

Filtered by structure, those above containing an NH in an aromatic ring
Every second line gives: Mtb hypoxia inh	PrP 5UTR inh	Autofluor counter	Sa ugtP lethal	Sa RN4220 lethal	BJeLR lethal	Mtb hypoxia inh growth
Cc1cccc(N2CCN(C(=O)c3ccc4[nH]c(C)c(C)c4c3)CC2)c1C
→ 10	3	2940	-23	-4.3	·	1
COc1ccc(-c2n[nH]c(=S)n2Cc2ccco2)cc1
→ 1	-5	21139*	2	8.7	-17	8

Going on with the list.
Every second line gives: Mtb hypoxia inh	PrP 5UTR inh	Autofluor counter	Sa ugtP lethal	Sa RN4220 lethal	BJeLR lethal	Mtb hypoxia inh growth
O=C(COC(=O)COc1ccccc1)NC12CC3CC(CC(C3)C1)C2
→ 5	-13	3929	1	1.3	·	2
O=C(NCc1ccc(Cl)cc1Cl)C(=O)N1CCCCC1
→ 3	-8	8965	-8	1.9	-8	6
C=CCOC(=O)c1ccc(-n2cnc(C)n2)nc1
→ -1	-25	2113	7	0.2	5	2
CSc1ccc(/C=C/C(=O)c2ccc(NC(=O)Cc3ccccc3)cc2)cc1
→ -2	-16	5598	-11	-7.8	-6	8
CN1CCN(c2nc3ccccc3nc2NS(=O)(=O)c2ccc(Br)cc2)CC1
→ -9	-4	2919	-9	-2.1	·	0
CCOC(=O)c1cnn2c(C(F)(F)F)cc(-c3cn(C)nc3C)nc12
→ 4	-15	2941	5	3.4	-7	4
CC(C=NNC(=O)CNc1n[nH]c(=O)[nH]c1=O)c1ccccc1 (stereo unspecified)
→ 11	·	·	-1	0.9	·	8
CC(=O)Nc1ccc(C(C)=NNS(=O)(=O)c2ccc(C)cc2)cc1
→ 0	·	·	-5	-17	·	2
CC(C)NC(=O)N(C)CC1Oc2ccc(NC(=O)CCN3CCOCC3)cc2CC(=O)N(C(C)CO)CC1C (stereo unspecified)
→ 8	·	·	4	2.0	·	-3
O=C(NNS(=O)(=O)c1ccc(Br)cc1)c1ccccc1-n1cccc1
→ -7	-1	5583	-9	18	6	5
Cc1ccc2[nH]c3c(=O)n(CCN4CCOCC4)cnc3c2c1
→ 8	-10	3002	-2	4.5	-5	1
CCSc1nc2sc3c(c2c(=O)[nH]1)CCCC3
→ 17	-30	10085	-13	14	-8	2
COCCN(C(=O)COC(=O)/C=C/c1ccc(SC)cc1)c1c(N)n(Cc2ccccc2)c(=O)[nH]c1=O
→ 1	-9	4127	17	-0.6	·	-4
CC(=O)N(/C=C1\SC(=S)N(c2ccccc2)C1=O)c1ccccc1
→ 1	-27	5530	15	2.8	-4	-2
CCCCC(CC)C(=O)NCc1ccc(F)cc1 (stereo unspecified)
→ 3	-25	2253	8	-3.1	-1	20
CCOC(=O)c1ccccc1NC(=S)N1CCC(N2CCCCC2)CC1
→ 4	-20	2558	8	0.6	3	-4
COc1cc(C(=O)NNC(=O)COc2ccccc2Cl)ccc1OCC(=O)N1CCOCC1
→ 13	·	·	4	3.5	·	8
COc1cc2c(c(OC)c1O)C(=O)CO2
→ 6	-24	3822	11	3.3	4	-12
COCCn1nnnc1C(c1cccc(C(F)(F)F)c1)N1CCOCC1 (stereo unspecified)
→ -2	-14	2892	0	-13	-1	1
CN(c1ccccc1)S(=O)(=O)c1ccc(C(=O)Nc2ccncc2)cc1
→ 11	-9	6011	0	4.1	4	-1
CC(=O)Nc1ccc(NC(=O)[C@@H]2CCCN2S(=O)(=O)c2ccc3c(c2)OCCO3)cc1
→ -10	-6	4256	5	7.8	9	7
O=C(CSc1nnc(CNc2ccccc2)o1)N1CCCc2ccccc21
→ -4	-9	11077	-3	-2.6	-7	-8
CCn1cnc2c(oc3ccccc32)c1=O
→ 10	-24	3302	4	13	-17	19
CCN(C(=O)COC(=O)CSc1ccc(F)cc1)c1c(N)n(Cc2ccccc2)c(=O)[nH]c1=O
→ -6	-27	8941	-2	5.9	·	-6
COC(=O)C1=C(C(=O)OC)C2N(Cc3ccccc3)c3ccccc3[C@@]23CC(C(=O)OC)N(C(=O)c2cccs2)C3=N1 (stereo partly specified)
→ 4	·	·	-3	3.5	·	2
N#CCCN(C(=O)COC(=O)c1cccc(S(=O)(=O)N2CCCCCC2)c1)c1ccc(F)cc1
→ 11	-18	3914	6	2.7	·	6
COc1cccc(OC)c1C(=O)NCCN1CCN(C(=O)c2c(OC)cccc2OC)CC1
→ 6	-15	3728	-9	0.9	-10	5
CC(=NOCON=C(C)c1ccc(F)cc1F)c1ccc(F)cc1F
→ 11	·	·	20	4.7	·	12
CCOC(=O)C1CCCN(C(=O)C2CCCN(S(=O)(=O)c3ccc4c(c3)oc(=O)n4C)C2)C1 (stereo unspecified)
→ 3	1	5767	10	2.3	3	0
CCN(CC)CCN(C(=O)Cn1nnc(-c2ccc(C)o2)n1)C(C(=O)NC1CCCC1)c1ccc(F)cc1 (stereo unspecified)
→ -1	-18	3983	-2	1.3	-2	-4
COc1cc2c(cc1OC)CN(S(=O)(=O)c1ccc(Cl)nc1)CC2
→ 0	-14	5889	-3	0.8	·	16
CN(CCOc1ccc(Cl)cc1)C(=O)Cc1ccc(S(=O)(=O)N2CCOCC2)s1
→ 3	-19	7837	-2	2.5	·	-4
c1ccc(CN2CCN(Cc3ccc4c(c3)OCCO4)CC2)cc1
→ 15	-16	2441	15	0.3	1	11
CC(C)CCCN1CCN=C1Nc1ccccc1
→ ·	2	3549	·	·	-9	·
Cc1ccc(NC(=O)CN2C(=O)N/C(=C/c3ccc(C)o3)C2=O)cc1
→ 11	-3	2489	2	1.3	7	10
Cc1ccc(S(=O)(=O)NCCC(=O)NCC(c2cccs2)N(C)C)cc1C (stereo unspecified)
→ 4	-14	3920	8	5.3	·	7
COc1cc(OC)c(NS(=O)(=O)c2ccc3c(c2)NC(=O)CO3)cc1Cl
→ -3	-16	4919	8	8.2	-1	-6
COc1ccc(N2CCN(C(=O)CSc3nnc(C)c(=O)[nH]3)CC2)cc1
→ 6	-9	7441	15	5.8	0	0
Cc1ccc(-c2csc(NC(=O)CSc3ncn(-c4ccccc4)n3)n2)cc1
→ 15	-17	4310	-22	-4.9	5	8
CC(C)(C)C(=O)N1N=C(c2ccc(NS(C)(=O)=O)cc2)CC1c1cccs1 (stereo unspecified)
→ -1	-33	2337	-10	2.4	-9	10
CC(C)(C)NC(=O)CSc1nc2ccc(Nc3nc(N4CCOCC4)nc(N4CCOCC4)n3)cc2s1
→ -5	-21	2655	-15	-0.3	-10	-6
Cc1cnc(CNC(=O)CC2C(=O)NCCN2Cc2ccccc2C(F)(F)F)cn1 (stereo unspecified)
→ 5	-35	6160	2	3.1	-2	7
Cc1ccc(C2=NC(C)(C)N=C2SCC(=O)Nc2ccc(Cl)cc2)cc1
→ 2	7	6523	-13	5.5	0	12
CCn1ncc(/C=N\NC(=O)Cc2ccc([N+](=O)[O-])cc2)c1C
→ ·	-16	10711	·	·	5	·
O=C(CCS(=O)(=O)c1ccccc1)Nc1cccc(-c2nc3ccccc3s2)c1
→ -1	-101	2162	-3	2.8	5	0
O=C(CN1CCOCC1)Nc1ccc(Br)cc1C(=O)c1ccccc1
→ -1	-21	5891	6	4.2	-7	0
COc1ccc(-c2ccnc3cc(C(=O)O)nn23)cc1
→ 7	84*	4186	2	0.0	0	2
O=C(NCc1ccco1)c1ccc2c(c1)OCCO2
→ 13	-27	4362	6	4.2	-2	1
O=C(CSc1nnc(Cc2csc(Nc3cccc(Cl)c3)n2)o1)N1CCc2ccccc21
→ 8	-5	?	14	-1.5	-2	9
CCOC(=O)c1c(CN2CCN(C)CC2)oc2ccc(O)cc12
→ 6	-10	9258	-1	1.9	3	-2
O=C(N/N=C/c1cccc(F)c1)c1c(O)c2c([nH]c1=O)CCCC2
→ ·	-52	1828	·	·	-4	·
CC(C)NC(=O)CCc1nc2cccnc2n1-c1ccccc1
→ 5	-34	3969	7	1.1	-8	-20
Oc1c(Br)cc(Br)cc1CNc1cnc2ccccc2c1
→ -4	-5	3399	5	41	-2	11
COc1ccccc1NC(=O)NCCN1C(=O)C2C3C=CC(C3)C2C1=O (stereo unspecified)
→ ·	-17	6357	-1	0.6	2	·
Brc1ccccc1OCCNCc1ccccc1
→ -10	-41	4439	-3	3.5	-5	5
CCOC(=O)c1[nH]c2ccccc2c1NC(=O)c1ccc(S(=O)(=O)N(C)C)cc1
→ -3	24	6050	19	20	-3	1
O=C(NNc1ccc(Cl)cc1)C1CCC1
→ -3	-22	4491	-2	4.3	8	0
Cc1c(NC(=O)c2cc3nc(-c4ccccc4)cc(C)n3n2)c(=O)n(-c2ccccc2)n1C
→ ·	-21	2770	2	0.0	·	·
O=C(NCCc1ccccc1)c1cnc2ccccc2n1
→ 7	-34	4142	2	5.7	4	4
COc1ccccc1CCNC(=O)c1ccc(Br)s1
→ ·	-37	5838	9	6.2	3	·

Carrying on:
Every second line gives: Mtb hypoxia inh	PrP 5UTR inh	Autofluor counter	Sa ugtP lethal	Sa RN4220 lethal	BJeLR lethal	Mtb hypoxia inh growth
Cc1ccc(C)c(OCc2cc(C(=O)NC3CCN(Cc4ccccc4)CC3)no2)c1
→ 2	14	6324	59	0.7	8	13
CC(NCC(O)COc1ccccc1)C1COc2ccccc2O1 (stereo unspecified)
→ -6	0	4220	-5	2.4	-1	3
CCCCCOc1ccc(OC(=O)c2ccncc2)cc1
→ 0	-29	9497	5	4.4	0	8
O=c1c(-c2ccc(Cl)cc2)cnc2n1CCS2
→ 1	-18	4259	2	-1.9	-1	4
COC(=O)CCC(=O)NNC(=O)c1cccc(Cl)c1
→ 3	-13	25239*	-1	-1.6	·	-3
Cc1ccc(NCC(=O)NN=Cc2cccc(O)c2)cc1
→ 0	·	·	11	0.8	·	12
